NPYLR7 agonist – mosquito NPYLR7 agonism; HEK293T NPYLR7/Galpha15, GCaMP6s calcium fluorescence; activation, % at 10 µM; 270,000 tested, 0.15% active; AID 1259423; in the data active = activation above about 40%;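 note: 0% = vehicle and 100% = reference agonist at the receptor; some compounds past the cut are filed as inactive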
NPYLR7 agonist max-min – recorded beside NPYLR7 agonist, whose call it bears; activation, %; measured here: Max-Min RFU normalised activation; some inactives read as strong as hits;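 span of the calcium signal over five minutes; 0% = vehicle and 100% = native peptide agonist; compound fluorescence can raise it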
* = called active by the depositor.

SMILES	NPYLR7 agonist	NPYLR7 agonist max-min
CC(=O)c1c(F)cccc1OC(C)c1ccccc1 (stereo not drawn)	-3	-7
Cc1cc(C)n(C(C)C(=O)N2CCc3c(nc(C)nc3N3CCCC3)C2)n1 (stereo not drawn)	-1	-4
CN[C@@H](C)[C@H]1[C@H](O)C[C@@]2(C)[C@@H]3CC[C@H]4C(C)(C)[C@@H](NC)CC[C@@]45C[C@@]35CC[C@]12C	1	-1
N#Cc1cc(F)ccc1N1CCN(c2ccc(C(N)=O)cc2)CC1	-20	-22
Cc1ccc(CNC(=O)C2CCN(S(=O)(=O)c3ccc4c(c3)OCCO4)CC2)cc1F	-7	-7
Cc1ccccc1-c1cc(O)c2c(c1)CN(c1ncnc3c1CCC3)CCO2	2	-6
Cc1ccnc(SCc2cc(=O)c(OC(=O)COc3ccccc3C)co2)n1	-7	-3
Cc1cc(C)nc(-n2cccc2CN2CCC3(CC2)Nc2ccccc2C(=O)N3C2CCCC2)n1	0	14
Cc1ccc(NC(=O)N2CCN(c3nc(Cc4ccccc4)ns3)CC2)cc1Cl	-6	-3
COc1ccc(CCNC(=O)c2ccc(-c3cc(-c4ccccc4)n[nH]3)cc2)cc1	1	14
CC(C)(C(=O)NC(c1ccc(F)cc1)c1ccc(SCc2ccccc2)cc1)c1ccc(Cl)cc1 (stereo not drawn)	-11	-21
COc1ncccc1NC(=O)c1ccc(CN2CCN3CCCC3C2)cc1 (stereo not drawn)	19	2
Cc1ccccc1OCC(=O)NNC(=O)CCC(=O)O	2	8
O=C(Nc1nncc(-c2ccccc2)n1)N1CCCC1c1ccccc1 (stereo not drawn)	-5	-6
Cc1ccc(CN2C(=O)NC3(CCN(CC(=O)N4CCOCC4)CC3)C2=O)cc1	-3	-3
CC(=O)N1CCN(Cc2nc(-c3ccco3)cs2)CC1	-9	-16
CC(=O)c1cc(C(N)=O)c(=S)[nH]c1C	-11	-15
O=C1COCc2ccc(-c3cccnc3)cc2N1Cc1ccccc1	6	1
CCN1CCN(C(c2cccc(Cl)c2)c2c(O)cc(C)n(CC)c2=O)CC1 (stereo not drawn)	13	7
Oc1ccc(N=Nc2ccc(SC(F)F)cc2)c2cccnc12	9	8
NC(=O)[C@@H]1CSSCCC(=O)N[C@@H](CCCCN=C(N)N)C(=O)NCC(=O)N[C@@H](CC(=O)O)C(=O)N[C@@H](Cc2c[nH]c3ccccc23)C(=O)N2CCC[C@H]2C(=O)N1	-18	-23
Cc1cc(OCCN2CCN(Cc3ccccc3)CC2)ccc1I	-5	-1
Cc1ccc(OCC(=O)NC2CC(=O)N(CCc3ccccc3)C2)cc1 (stereo not drawn)	3	1
COC(=O)c1ccc(CC2(C)C(=O)Nc3cccc(Cl)c32)o1 (stereo not drawn)	-3	2
Cc1ccc(S(=O)(=O)Nc2ccc(Nc3nc(C)cc(N4CCCCC4)n3)cc2)c(C)c1	6	-1

Part of the list above in order of SMILES length, largest number first:
SMILES	NPYLR7 agonist	NPYLR7 agonist max-min
NC(=O)[C@@H]1CSSCCC(=O)N[C@@H](CCCCN=C(N)N)C(=O)NCC(=O)N[C@@H](CC(=O)O)C(=O)N[C@@H](Cc2c[nH]c3ccccc23)C(=O)N2CCC[C@H]2C(=O)N1	-18	-23
Cc1ccc(NC(=O)N2CCN(c3nc(Cc4ccccc4)ns3)CC2)cc1Cl	-6	-3
Cc1ccccc1-c1cc(O)c2c(c1)CN(c1ncnc3c1CCC3)CCO2	2	-6

(cont.)
SMILES	NPYLR7 agonist	NPYLR7 agonist max-min
COc1ccc(-n2ccnc2CNC2CC(=O)N(Cc3ccc(F)cc3)C2)cc1 (stereo not drawn)	4	0
CCCNC(=O)C1(C)CCN(Cc2ccnc3ccccc23)C1 (stereo not drawn)	-2	-3
c1ccc2c(c1)OC1(CCCCC1)O2	7	5
COc1cc(C(=O)NCCc2csc3nc(-c4ccccc4F)nn23)c([N+](=O)[O-])cc1OC	-4	-5
Cc1nc2ccc(Cl)cn2c(=O)c1NC(=O)C1CCCC1	5	2
COc1ccccc1CNc1nc2c(-c3cccc(C)c3)nnn2c2ccccc12	-6	-9
Cc1cccc(-c2ccc(NC(=O)C3CCN(C(=O)CSc4ccncc4)CC3)cc2)c1	5	3
Cc1ccc(Cc2nc(CSc3nncn3C)cs2)cc1	13	22
COc1ccc(C(=O)N2C(C(=O)O)COC23CCN(C(=O)Cc2cccs2)CC3)cc1 (stereo not drawn)	8	17
Cn1ncc(Oc2cccc(C(F)(F)F)c2)c(Nc2cccc(C(=O)O)c2)c1=O	12	9
O=C(CCCCCCC(=O)Nc1ccccc1)NO	-3	-1
CN(C)c1ccc(C(=O)N2CCC3(CCCO3)CC2)c2ccccc12	1	1
O=C(Cn1ccc(=O)c2ccccc21)Nc1cc(Cl)ccc1C(=O)N1CCCC1	4	2
NC(=O)c1cc2ccccc2oc1=NCc1ccccc1	-6	-10
C=CCOC(=O)C1=C(C)NC(C)=C(C(=O)OCC=C)C1c1cccc(Oc2ccccc2)c1	1	-4
O=[N+]([O-])c1cccc(-c2c[n+]3c(n2-c2ccccc2)SCC3)c1	2	2
COc1cc(C)nc(N(CC(=O)O)S(=O)(=O)c2ccc(C)cc2)n1	-3	-4
Cc1ccc(Cn2ncc3cc(Br)cnc32)cc1	8	5
Cc1ccc(-n2ncc3c(=O)n(NC(=O)Cc4ccc(F)cc4)cnc32)cc1C	7	3
Cc1ccccc1C(=O)N1CCC(C(NC(=O)c2ccc(F)cc2)C(=O)NC2CC2)CC1 (stereo not drawn)	-2	1
CCNC(=O)N1CCC(NC(=O)[C@H](N)c2ccccc2)CC1	26	20
COc1cccc(-c2nn(-c3ccccc3)cc2CN2CCCC(CN3CCCC3=O)C2)c1 (stereo not drawn)	19	10
O=C(c1c(F)cccc1Cl)N1CCN(C2c3ccccc3CCc3ccccc32)CC1	7	-3
Cc1ccc(S(=O)(=O)NC(C)Cn2cncn2)c(C)c1 (stereo not drawn)	1	0
O=C(NCc1ccc2[nH]c3c(c2c1)CCCCCC3)C1CCS(=O)(=O)CC1	13	6
Further results.
SMILES	NPYLR7 agonist	NPYLR7 agonist max-min
CC(=O)c1ccc(N2CCN(C(=O)c3ccccc3F)CC2)c(F)c1	0	-2
CCC(=O)Nc1nnc(SCC(=O)Nc2cc(C)ccc2C)s1	5	6
CS(=O)(=O)c1ccc(CN2CCCC(c3ccccc3)C2)cc1 (stereo not drawn)	0	-2
CN(CCc1nc2ccc(Cl)cc2[nH]1)Cc1nc(Cc2cccc(C(F)(F)F)c2)no1	1	-1
CCc1ccc(OCCSc2nc3ccccc3n2CC(=O)O)cc1	0	-8
CC(NC(=O)N1CCN(c2ncccn2)CC1)c1cccs1 (stereo not drawn)	-1	-2
Cc1cc(C(=O)CSc2nnc3n2CCCCC3)c(C)n1C	-1	-2
Cc1cccc(-n2c(C)nc3sccc3c2=O)c1	-8	-11
CC(C)(C)NC(=O)C1(C)CCN1Cc1cccc2c1OCO2 (stereo not drawn)	7	1
O=C1c2nccnc2C(=O)N1c1cc(Cl)cc(Cl)c1	7	7
Cc1ccccc1NC(=O)N1CCSC1c1ccco1 (stereo not drawn)	24	26
COc1ccccc1-c1cc(C(=O)NC(C)C(C)C)n2nc(-c3ccc(Cl)cc3)cc2n1 (stereo not drawn)	7	11
CCC(C)NC(=O)CN1C(=O)NC(C)(c2ccc(Cl)cc2)C1=O (stereo not drawn)	-6	-11
CC(=O)c1ccc(N=Cc2nc(-c3ccc(Cl)cc3)oc2O)cc1	-13	-14
N[n+]1cnn(CC(=O)c2ccccc2Br)c1	-6	-12
CCOC(=O)C1CCCN(C(=O)CC2CSc3nc(C)cc(=O)n32)C1 (stereo not drawn)	0	0
O=P(Cc1cccc[n+]1[O-])(c1ccccc1)c1ccccc1	-7	-15
CCCCOc1ccc(C(=O)NCC2Cc3cc(C(=O)OC)ccc3O2)cc1 (stereo not drawn)	29	19
CCN(CC)C(=O)Oc1ccc2c(ccn2Cc2cc(C)cc(C)c2)c1NC(=O)c1cccc(OC(C)=O)c1C	0	5
COc1ccccc1CNC(=O)CSc1ccc(NC(=O)c2ccccc2)nn1	2	3
CCOC(=O)C1C(c2ccc([N+](=O)[O-])o2)NC(=O)NC1(O)C(F)(F)F (stereo not drawn)	1	1
CC(C)OCCCNC(=O)c1cn(C)nc1S(=O)(=O)N1CCN(c2ccc(Cl)cc2)CC1	-3	-2
CNC(=O)COC1CN(C(=O)Cc2ccccc2)CCC(=O)N(C)c2ccccc21 (stereo not drawn)	5	13
COc1cc2c(cc1OC)C(NNC(N)=O)=NC(C)(C)C2	2	0
COc1ccc(C=NNC2=Nc3cccc4cccc2c34)cc1	5	3
More entries:
SMILES	NPYLR7 agonist	NPYLR7 agonist max-min
CC1CN(Cc2nc3cc(Cl)ccc3n2Cc2ccccc2)CCO1 (stereo not drawn)	2	-1
CCc1nc(SCC(=O)N2CCc3[nH]nc(-c4ccccc4)c3C2)n[nH]1	-2	-3
CCOC(=O)C1CCCN(C(=O)c2ccc(CSc3nc(COC)cc(N4CCN(c5ccc(OC)cc5)CC4)n3)o2)C1 (stereo not drawn)	4	7
COc1ccc(C)cc1N1CCN(C(=O)c2ccc(Br)cc2)C(C)C1=O (stereo not drawn)	-11	-10
N#CCCN(Cc1ccccc1)C(=O)c1ccc(Nc2cccc(C(F)(F)F)c2)nc1	-15	-21
CN(Cc1ncccc1C(=O)O)CC1CCN(c2ccccc2)C1 (stereo not drawn)	5	2
CC(C)(C)n1ncc2c1CCCC2NC(=O)CCn1c(=O)oc2ccccc21 (stereo not drawn)	-1	-2
S=c1[nH]nc2n(C3CC3)c(-c3ccccc3)nn12	-6	-5
Cc1nc2sccn2c1-c1csc(Nc2cccc(C(=O)O)c2)n1	-22	-28
CCC1(CC)CN(C(=O)CC2C(=O)NCCN2Cc2ccoc2)CCO1 (stereo not drawn)	3	1
CCCS(=O)(=O)Oc1cc(Cl)ccc1-c1nc2ncccc2o1	20	17
CC(C)Cc1cc(C(=O)NCc2ncn[nH]2)n[nH]1	4	0
CCC(=O)C1=C(c2ccccc2)N(C(=O)CC)n2cnnc2S1	7	4
O=C(Nc1cc(C(F)(F)F)ccc1N1CCCCC1)c1ccncc1	6	2
c1csc(C(CNc2ncnc3sc4c(c23)CCC4)N2CCCC2)c1 (stereo not drawn)	-1	-4
CN(CCc1nc2ccc(Cl)cc2[nH]1)C(=O)c1ncn[nH]1	10	-2
c1ccc2[nH]c(CSc3n[nH]c4nc5ccccc5n34)nc2c1	-6	-6
COC(=O)c1ccc(NC(=O)Cn2cc(OC)c(=O)cc2CSc2nccc(C)n2)cc1	0	-10
COC(CNc1ncnc2c1c(-c1ccccc1)cn2-c1ccc(F)cc1)OC	-6	-8
O=C(CCn1c(=O)oc2cc(S(=O)(=O)N3CCCC3)ccc21)Nc1cc(Cl)cc(Cl)c1	-4	-8
Cc1ccc(C(=O)Nc2ccc(C(=O)N(C)Cc3ncc[nH]3)cc2)o1	10	-1
Cc1onc(-c2ccccc2Cl)c1C(=O)N1CCCCCC1	6	5
Cc1csc(CNc2cccc(CN3CCC(CO)CC3)c2)n1	8	5
N#Cc1ccc(CNCCNC(=O)Cc2ccc(F)cc2)cc1	0	0
O=C(CC1CSc2nccc(=O)n21)NCCC1=CCCCC1 (stereo not drawn)	-2	-2
(cont.)
SMILES	NPYLR7 agonist	NPYLR7 agonist max-min
CCn1c(C2CCN(C(=O)c3cnc(N(C)C)nc3C)CC2)nn(C)c1=O	3	1
O=c1c(-c2cccc(Br)c2)[n+]([O-])c2ccccc2n1OCc1ccccn1	-6	-11
COCc1nc(-c2ccccc2)nc(N2CCN(C(=O)c3ccc(F)cc3)CC2)c1Cc1ccc(Cl)cc1	22	25
Cc1ccc(-n2c(CCC(=O)NCCCn3ccnc3)cc3c2-c2ccccc2OC3)c(F)c1	1	1
CCN(c1cccc(CO)c1)S(=O)(=O)c1c(C)c(C)c(C)c(C)c1C	8	5
CCCNC(=O)Cn1nc2c(c1N)CSC2	-4	-3
N#Cc1ccc(OCC(=O)N2N=C3CCCCC3C2(O)C(F)(F)F)cc1 (stereo not drawn)	-3	-4
O=c1c2nnc3c(-c4ccccc4)cnn3c2ccn1CCC1=CCCCC1	1	1
COc1ccc(OCCC#N)cc1	2	0
COCCN(Cc1cc(NC(=O)COC)ccc1N(C)C)C(=O)c1cccs1	-4	-2
COc1cccc(NC(=O)NCCCn2nc(-c3ccco3)ccc2=O)c1	1	0
CC(C)C(=O)NCC1CCCN(C(=O)c2ccccc2)C1 (stereo not drawn)	11	7
Cc1ccc(-n2[nH]c(-c3ccccc3)c(-c3ccc(NC(=O)CC(C)C)cc3)c2=O)c(C)c1	6	14
Cc1nn2c(NC(C)C)c3c(nc2c1-c1ccccc1)CCC3	2	2
COc1ccc(OC)c2sc(N(Cc3ccccn3)C(=O)c3cc(C)nn3C)nc12	5	4
Fc1ccccc1CN(Cn1nc(-c2ccncc2)oc1=S)C1CC1	-7	-9
COc1cccc(CN2CCCn3cccc3C2c2ccc(F)cc2F)c1 (stereo not drawn)	5	21
CN1CCC(N(C)C(=O)c2cc3cc(Br)cc(Br)c3o2)CC1	3	2
Cc1nn2c3ccc(N)cc3nc2c2ccccc12	-4	-6

Whole records as entered above.
O=c1c2nnc3c(-c4ccccc4)cnn3c2ccn1CCC1=CCCCC1 reads NPYLR7 agonist: 1; NPYLR7 agonist max-min: 1
COCc1nc(-c2ccccc2)nc(N2CCN(C(=O)c3ccc(F)cc3)CC2)c1Cc1ccc(Cl)cc1 reads NPYLR7 agonist: 22; NPYLR7 agonist max-min: 25
CCN(c1cccc(CO)c1)S(=O)(=O)c1c(C)c(C)c(C)c(C)c1C reads NPYLR7 agonist: 8; NPYLR7 agonist max-min: 5

A different layout for some results above.
Under each structure – NPYLR7 agonist	NPYLR7 agonist max-min
- COc1ccc(OCCC#N)cc1
 : 2	0
- COCCN(Cc1cc(NC(=O)COC)ccc1N(C)C)C(=O)c1cccs1
 : -4	-2

Quoted at random: two compounds from above.
SMILES	NPYLR7 agonist	NPYLR7 agonist max-min
COCc1nc(-c2ccccc2)nc(N2CCN(C(=O)c3ccc(F)cc3)CC2)c1Cc1ccc(Cl)cc1	22	25
Cc1nn2c3ccc(N)cc3nc2c2ccccc12	-4	-6

Source: PubChem BioAssay

Some of the compounds tested (hit frequency here may not be typical).
